# HTT prom inh: Primary qHTS for Identification of Small Molecule Inhibitors of Huntingtin Promoter Activity; hit rate 0.93% among 48,000; AID 1508623, 2021; HEK293 HTT promoter firefly luciferase reporter (activity 0% = vehicle and -100% = no light), 24 h; Potency, µM (highest dose often 57.5 µM), without a hit: at the top dose activity change, negative = inhibition, hits mostly inhibitors; active = well fitted inhibition curve with a large enough effect; inconclusive = small, poorly fitted or top-dose-only effect; inactive = no such curve, though single readings can be large or run the other way; also: nearly all actives have a fitted effect of over 50% in size
#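 Quantitative HTS used concentration series of up to 57.5 uM final on HEK293 luciferase reporter cells, 24 h at 37 degrees C. Readout was Dual-Glo firefly luminescence.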
# PMP22 txn prim: Cell-based coincidence reporter assay to measure PMP22 gene transcription in S16 Pmp22-F2sN cells - Primary screen; S16 Pmp22-F2sN Schwann cells (luciferase reporters placed in the Pmp22 gene), FLuc/NLuc coincidence luminescence, 24 h; hit rate 2% among 43,000; Potency, µM (highest dose often 57.5 µM), inactives show top-dose activity change, negative = inhibition, hits mostly inhibitors; active = clear falling dose curves in both reporters; inconclusive = both reporters move, but less clearly or upward; inactive = either reporter flat; the % is the NLuc reporter signal; also: % is scaled to controls: 0 for no effect and ±100 for the full control effect; some results filed as inactive show a strong effect at the top dose
#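 Schwann cells carrying the coincidence reporter were exposed to library compounds for 24 h at 37C, then lysed and read for FLuc and, after quenching, NLuc luminescence on a CCD imager.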
# An asterisk follows results filed as active; ? = inconclusive; / = no result given; & = joins results of further samples; [ ] = dose if it differs, or a comment. Potency is read from the fitted curve at half-maximal effect.
cpd	SMILES	HTT prom inh	PMP22 txn prim
1	Cc1ccc(S(=O)(=O)C(CNC(=O)COc2ccccc2)c2cccs2)cc1 (centres undefined)	-28%	0%
2	COc1ccccc1CCNC(=O)CCc1c(C)c2cc3c(C)coc3c(C)c2oc1=O	-6%	-11%
3	COc1ccc(-c2oc3ncn4nc(-c5ccccc5C)nc4c3c2-c2ccc(OC)cc2)cc1	-18%[11.5 µM]	0%
4	COc1cccc(C(=O)Nc2ccc(C(=O)OCc3cc(=O)n4nc(C5CC5)sc4n3)cc2)c1	-12%	?
5	COC(=O)c1sc(S(=O)(=O)N2CCN(c3ccc(OC)cc3)CC2)c(C(=O)OC)c1C	?	-1%
6	NC(=O)C1CCN(C(=O)c2ccc3c(c2)N(Cc2cccc(Cl)c2)C(=O)c2ccccc2S3=O)CC1 (centres undefined)	-14%	-4%
7	Cc1ccc(C)c(Cn2c(=O)n(C(C)C)c(=O)c3oc4ccccc4c32)c1	5%	-2%
8	CCn1cnc2c(=O)oc3ccc(S(=O)(=O)Nc4ccc(OC)cc4)cc3c21	-5%	-35%
9	COc1ccc(S(=O)(=O)c2c(O)c3ccc(C(=O)NCc4ccc(Cl)cc4)cc3[nH]c2=O)cc1	-2%	-3%
10	COc1cc2c(cc1NC(=O)COc1ccc(Br)c(C)c1)oc1ccccc12	1%	10%
11	Cc1ccc2nc(CNC(=O)c3ccccc3)[nH]c2c1	0%	23%
12	CCOC(=O)c1c(NC(=O)c2cc(=O)c3c(C)cc(C)cc3o2)sc2c1CCC2	0%	4%
13	OCc1ccc(-c2ccc(-c3ccc(CO)s3)o2)s1	-1%	/
14	COCCNc1oc(-c2ccc(OC)cc2)nc1C#N	43%[activator]	-10%
15	Cc1c(NC(=O)c2ccccc2F)cccc1-c1nc2cccnc2s1	-10%	-38%
16	COc1ccc(OCC2c3cc(OC)c(OC)cc3CCN2C(=O)COc2ccc(Cl)cc2Cl)cc1 (centres undefined)	?	-7%
17	CCOc1ccccc1CNC(=O)C1CCCN(c2ncnc3onc(-c4ccc(F)cc4)c23)C1 (centres undefined)	-6%	5%
18	Cc1ccc(-n2c(-c3ccc(Br)cc3)nc3c(cnn3-c3ccccc3)c2=O)cc1	-29%	-9%
19	Cc1ccc(-c2cc3nc(-c4ccccc4)cc(C(F)(F)F)n3n2)cc1	-19%[11.5 µM]	-2%
20	Cc1nnsc1C(=O)Oc1ccc(Cl)cc1	-9%	-1%
21	Cc1nc2c3cccnc3nn2c(C)c1CCC(=O)NCc1ccccc1	-25%	3%
22	COc1ccc(C)c2sc(N(Cc3cccnc3)C(=O)c3cccs3)nc12	?	?
23	CCCN(CCC)C(=O)Cn1c(=O)n(-c2ccc(Cl)cc2)c(=O)c2c3c(sc21)CCCC3	-10%	3%
24	Cn1cc(C(=O)[C@@H]2CCc3nc[nH]c3C2)c2ccccc21	-2%	/
25	CC(C)(C)NC[C@H](O)COc1nsnc1N1CCOCC1	7%	/

# The list goes on, starting with the last two of the part before.
cpd	SMILES	HTT prom inh	PMP22 txn prim
24	Cn1cc(C(=O)[C@@H]2CCc3nc[nH]c3C2)c2ccccc21	-2%	/
25	CC(C)(C)NC[C@H](O)COc1nsnc1N1CCOCC1	7%	/
26	COc1ccc(-c2[nH]c(-c3ccccc3)nc2SCC(=O)Nc2ccc3c(c2)OCCO3)cc1	?	-19%
27	Cc1ccc(CNC(=O)CN2C(=O)COc3ccc(S(=O)(=O)Nc4ccccc4)cc32)cc1	-15%	-23%
28	COc1ccc(CCNC(=O)c2c(O)nc3ccccn3c2=O)cc1	1%	-19%
29	COCCc1nn2c(=O)cc(COC(=O)c3ccc(C(C)(C)C)cc3)nc2s1	?	?
30	COc1cccc(NC(=O)Cn2c(=O)n(Cc3ccccc3)c(=O)c3c4c(sc32)CN(C(C)=O)CC4)c1	-4%	?
31	Cc1cccc(NC(=O)Cn2nnc(C(=O)NCc3ccco3)c2N)c1	-15%	?
32	COc1cc(OC)c(N(C)C(=O)Cn2ncc3c(=O)oc4ccccc4c32)cc1Cl	-1%	-3%
33	CCOc1ccc(C(=O)NCc2nnnn2-c2ccc(C)c(C)c2)cc1OCC	1%	-14%
34	CCc1ccc(NC(=O)Cn2c(=O)n(-c3ccc(OC)cc3)c(=O)c3ccc(C(=O)NCc4ccc(C)cc4)cc32)cc1	-1%	13µM*
35	COc1ccc(-n2c(=O)[nH]c3cc(C(=O)NCCc4ccccc4)ccc3c2=O)cc1OC	?	-8%
36	CCCN(CCC)C(=O)C1CCN(c2ncnc3c2nc2n3CCCCC2)CC1	15%	-10%
37	CCCc1cc(=O)[nH]c2nnc(SCCC(C)C)n12	-15%	12%
38	COc1cc(CN(C(=O)c2ccc(OC(C)C)cc2)C2CCS(=O)(=O)C2)cc(OC)c1OC (centres undefined)	-14%	17%
39	Cc1coc2cc3oc(=O)c(CC(=O)NCc4cccc(Cl)c4)c(C)c3cc12	-25%	?
40	Cc1ccc(Cl)cc1NC(=O)c1cc(S(=O)(=O)N2CCCCCC2)cn1C	-29%	?
41	COc1ccc(CNC(=O)CCc2nc3cccnc3n2Cc2ccccc2)cc1	-25%	2%
42	O=C(Cc1ccc(F)cc1)NCCc1csc(-c2cccc(F)c2)n1	?	8%
43	CCOc1ccc(CNC(=O)CCn2nc(C)c3c(C)n(-c4ccccc4)nc3c2=O)cc1	-11%	1%
44	Cc1cccc(NC(=O)CCS(=O)(=O)c2cc(Br)cc3c2N(C(=O)C2CC2)CC3)c1	-10%	-6%
45	Cc1ccc(C)c(NC(=O)C(c2ccccc2)N2Cc3ccccc3C2=O)c1 (centres undefined)	-28%	-22%
46	Cc1ccc(S(=O)(=O)N(Cc2nc(-c3ccc(Cl)cc3)no2)C2CCCCC2)cc1	-26%	?
47	COc1ccc(CNC(=O)c2ccc3c(c2)N(Cc2ccc(C)cc2)CCS3)cc1	-31%	-1%
48	CCOC(=O)c1cccc(Nc2cc(C)nc(C)n2)c1	-5%	-7%
49	CCOc1ccc(NC(=O)Nc2c[nH]c(=O)[nH]c2=O)cc1	-8%	-8%
50	COc1ccc(N2Cc3cccc(C(=O)Nc4ccc(Cl)cc4)c3C2=O)cc1	-2%	?
51	CC(C)(C)c1cc(C(C)(C)C)c2oc(=O)c(-c3nc4ccc(C(=O)O)cc4[nH]3)cc2c1	?	-30%
52	COc1ccc(-c2[nH]c(-c3ccc(Cl)cc3)nc2SCC(=O)NCC2CCCO2)cc1 (centres undefined)	?	?
53	Cc1ccc(S(=O)(=O)N2CCCc3cc(NS(=O)(=O)c4ccccc4)ccc32)cc1	?	?
54	CCOc1ccccc1NC(=O)CSc1nc2c(sc3ccccc32)c(=O)n1CCCC(=O)NC1CCCC1	-25%	?
55	CCc1ccccc1NC(=O)Cn1c(=O)n(Cc2ccccc2)c(=O)c2c(C)c(C(=O)N(C)C)sc21	-10%	0%
56	CCc1ccc(NC(=O)Cn2c(=O)n(CCCC(=O)NCc3ccccc3OC)c(=O)c3ccccc32)cc1	-3%	-21%
57	CCCn1c(NCc2ccccc2C)nc2ccccc21	17%	8%
58	CCOC(=O)c1c(C)oc2nc(C)nc(N3CCN(c4ccc(C)cc4C)CC3)c12	-6%	-4%
59	CCOc1ccccc1NC(=O)C(CC(C)C)NC(=O)C1CCC(C)CC1 (centres undefined)	-13%	?
60	CCOC(=O)c1c(NC(=O)CSc2cn(CCNC(=O)c3ccccc3OC)c3ccccc23)sc2c1CCCC2	?	?
61	COc1ccc(OC)c(S(=O)(=O)NCC(c2ccco2)S(=O)(=O)c2ccccc2)c1 (centres undefined)	-15%	-26%
62	COCc1nnc(NC(=O)c2cc(OC)c(OC)c(OC)c2)s1	2%	4%
63	Cc1oc(-c2ccc(Cl)cc2)nc1CN1CCCC(C(=O)NCc2ccc(Cl)cc2)C1 (centres undefined)	-6%	?
64	Cc1ccc(-c2nnc(Nc3ccc(C(N)=O)cc3)c3ccccc23)cc1S(N)(=O)=O	-1%	8%
65	CC(=O)Nc1cccc(-c2cn3cccnc3n2)c1	-14%	0%
66	CCN(CC)c1ccc(NC(=O)c2cnn3c(C(F)F)cc(-c4ccccc4)nc23)cc1	2%	?
67	CC(=O)c1ccc(NC(=O)C2=CC(c3ccc4c(c3)OCO4)=NS(=O)(=O)N2C)cc1	?	?
68	CCc1noc(-c2ccc(N3CCCCC3)c([N+](=O)[O-])c2)n1	40%[activator]	?
69	COc1ccc(Br)cc1CNC(=O)CN1CCSc2ccccc21	?	?
70	COC(=O)c1ccccc1NC(=O)c1cc2cc(C)ccc2n1C	?	-22%
71	Cc1cc(C)cc(NC(=O)CN(C)S(=O)(=O)c2ccc3c(c2)CCC(=O)N3)c1	-18%	-14%
72	O=C(COc1ccccc1F)Nc1c(C(=O)Nc2cccc(F)c2)oc2ccccc12	-3%	-37%
73	O=C(Nc1ccc(Cl)c(C(F)(F)F)c1)C(Cc1ccccc1)NS(=O)(=O)c1ccc(Br)s1 (centres undefined)	2%	-10%
74	CCC(=O)N1CCc2cc(CNS(=O)(=O)c3cc(Cl)ccc3OC)ccc21	-2%	-24%
75	Cc1ccc2c(=O)cc(C(=O)Nc3sc4c(c3C(=O)NCc3ccco3)CCCC4)oc2c1C	-8%	-6%

# Of the compounds above, three have a tert-butyl group.
cpd	SMILES	HTT prom inh	PMP22 txn prim
25	CC(C)(C)NC[C@H](O)COc1nsnc1N1CCOCC1	7%	/
29	COCCc1nn2c(=O)cc(COC(=O)c3ccc(C(C)(C)C)cc3)nc2s1	?	?
51	CC(C)(C)c1cc(C(C)(C)C)c2oc(=O)c(-c3nc4ccc(C(=O)O)cc4[nH]3)cc2c1	?	-30%

# Next entries.
cpd	SMILES	HTT prom inh	PMP22 txn prim
76	Cc1ccc(S(=O)(=O)NC2(C(F)(F)F)C(=O)Nc3c2c(=O)[nH]c(=O)n3-c2ccccc2)cc1 (centres undefined)	-4%	-4%
77	Cc1ccc(S(=O)(=O)N2CCCc3cc(NS(=O)(=O)c4cc(F)ccc4F)ccc32)cc1	?	?
78	Cc1ccc(NC(=O)C(C)Sc2nc3c(c(=O)[nH]2)CCCC3)cc1Cl (centres undefined)	-7%	3%
79	COc1ccc(Cl)cc1NC(=O)C(C)N1Cc2ccccc2C1=O (centres undefined)	-18%	-11%
80	Cc1ccc(C)c(N2CCN(C(=O)c3cc4cc5ccc(C)cc5nc4o3)CC2)c1	-6%	-4%
81	CCOC(=O)c1c(NC(=O)c2cc(=O)c3cc(Cl)ccc3o2)sc(C)c1C	13%	1%
82	Cc1ccc(C)c(NC(=O)C(=O)NCCc2csc3nc(-c4ccccc4C)nn23)c1	?	-15%
83	CCn1nc(-c2ccccc2)c(-c2ccccc2)c(C(=O)Nc2ccccc2C#N)c1=O	-12%	1%
84	Cc1ccc(N(CC(=O)N2CCN(c3cc(C)ccc3C)CC2)S(=O)(=O)c2c(C)nn(C)c2C)cc1	?	?
85	CC1(C)CCC(C)(C)c2cc(NC(=O)c3ccc(C(=O)O)cc3)ccc21	-21%&-18%	/
86	Cc1cc(C)cc(NC(=O)c2cccc(N3CCCS3(=O)=O)c2)c1	29%	20%
87	CCOC(=O)c1cc2c(=O)n3ccccc3nc2n(Cc2ccco2)c1=NC(=O)c1ccc(OC)cc1	-4%	?
88	Cc1ccc(NC(=O)Cn2c(=O)n(Cc3ccccc3)c(=O)c3sc4ccccc4c32)cc1	-2%	-22%
89	COc1ccc(NC(=O)c2ccc(CNS(=O)(=O)c3ccc4c(c3)C(C)(C)C(=O)N4C)cc2)cc1	-20%	-1%
90	CCc1ccc(C(=O)c2cn(CC(=O)Nc3cc(OC)ccc3OC)c3ccc(Cl)cc3c2=O)cc1	-10%	0%
91	CCc1ccc2oc(C(=O)Nc3nonc3CC)c(C)c2c1	34%[activator]	-76%
92	CC(C)c1ccc(NC(=O)c2ccc(F)c(S(=O)(=O)N3CCc4ccccc43)c2)cc1	?	-23%
93	CCOc1ccc(NC(=O)CCc2c(C)nc3c4c(C)cc(C)nc4nn3c2C)cc1	19%	3%
94	CCOc1ccc(NC(=O)[C@@H](c2ccccc2)N2Cc3ccccc3C2=O)cc1	-10%	12%
95	CCOc1ccc(C(=O)CSc2nc3cc(C(=O)NC4CCCC4)ccc3c(=O)n2CC2CCCO2)cc1 (centres undefined)	-4%	?
96	CCOc1cccc2cc(-c3nnc(Nc4ccc(F)c(Cl)c4)s3)c(=O)oc12	27%	9%
97	COC(=O)c1ccc(Nc2nc(-c3ccc(C)cc3)nc3ccccc23)cc1	21%	-31%

# One compound at a time (already shown). Order of values: HTT prom inh, PMP22 txn prim
# Profile of `Cc1ccc(S(=O)(=O)NC2(C(F)(F)F)C(=O)Nc3c2c(=O)[nH]c(=O)n3-c2ccccc2)cc1` (centres undefined) → -4%, -4%
# Profile of `CC(C)c1ccc(NC(=O)c2ccc(F)c(S(=O)(=O)N3CCc4ccccc43)c2)cc1` → ?, -23%
# Profile of `Cc1ccc(C)c(NC(=O)C(=O)NCCc2csc3nc(-c4ccccc4C)nn23)c1` → ?, -15%
# Profile of `Cc1ccc(NC(=O)Cn2c(=O)n(Cc3ccccc3)c(=O)c3sc4ccccc4c32)cc1` → -2%, -22%
# Profile of `CCOc1ccc(NC(=O)CCc2c(C)nc3c4c(C)cc(C)nc4nn3c2C)cc1` → 19%, 3%

# Screens deposited in PubChem by National Center for Advancing Translational Sciences (NCATS).
